# GLA inh pH 4.5 = blocks human alpha-galactosidase A at pH 4.5 | activity change, negative = inhibition, % at 105 µM | P06280 | purified enzyme, 4-MU-alpha-Gal fluorescence, pH 4.5 | 230,000 tested, under 10 active; inconclusive = small, poorly fitted or top-dose-only inhibition, or a rising curve; inactive = flat fitted curve, though single readings scatter; no compound was filed as active;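 note: 0% = full activity with enzyme and -100% = basal without enzyme; dose as in the result columns while the protocol names 77 µM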
# Rango dissoc inh = prevents RanGTP from dissociating the Rango-importin beta complex. O95149+P62826. Biochemical FRET Rango-importin beta, RanGTP-induced dissociation. Potency, µM (series often up to 46.1 µM), for inactives: at the top dose activity change, negative = inhibition. 340,000 tested, 0.071% active. AID 540253; active means falling FRET ratio curve, often poorly fitted, with flat reads before Ran was added; inconclusive means other falling curves, or compound fluorescence or quenching; inactive means flat or rising ratio curve;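 note: potency is the fitted concentration of half-maximal effect; % of control where 0% means no effect; nearly all actives have a fitted effect of over 45% in size; -100% = wells without RanGTP and RCC1; the record marks most hits as doubtful in a second field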
#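 Quantitative HTS using a FRET biosensor: 0.1 uM Rango, 0.25 uM importin beta, 0.6 uM Ran, 2 mM GTP, 0.2 uM RCC1 final, PBS with DTT, Tween-20 and BSA. Post-read taken 45 min after Ran addition.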
# miR-21 reporter = miR-21 reporter, rising signal; HeLa miR-21 FLuc reporter, luciferase, 48 h; Potency, µM (top dose mostly 38.3 µM), without a hit: top-dose reporter change, positive = more light; 340,000 tested, under 10 active; active = well fitted rising curve with a large enough effect; inconclusive = small, poorly fitted or top-dose-only effect; inactive = no such curve, though single readings can be large or run the other way;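 note: % of control where 0% means no effect; miR-21 action dims this reporter so a rising signal means less miR-21 action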
#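 HeLa cells stably expressing CMV-driven firefly luciferase with a downstream miR-21 binding sequence, endogenously expressing miR-21, were treated with titrations (up to about 40uM final) for 48 hours at 37 degree Celsius. Luciferase luminescence was read after lysis.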
# Rango-impB inh = inhibitors of Rango-importin beta complex formation; Q14974; Rango CFP/YFP FRET sensor + importin beta, 45 min; 340,000 tested, 0.031% active; Potency, µM (doses to about 92.2 µM), for the others: at the top dose inhibition of complex formation; active = rising FRET ratio curve, often small or poorly fitted; inconclusive = mostly compound fluorescence or quenching in the first reads; inactive = flat curves in all reads;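 note: potency is the fitted concentration of half-maximal effect; 0% = DMSO wells and 100% = buffer wells lacking importin beta; nearly all actives have a fitted effect of over 15% in size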
# Target sequence (Q14974 whole entry, looked up): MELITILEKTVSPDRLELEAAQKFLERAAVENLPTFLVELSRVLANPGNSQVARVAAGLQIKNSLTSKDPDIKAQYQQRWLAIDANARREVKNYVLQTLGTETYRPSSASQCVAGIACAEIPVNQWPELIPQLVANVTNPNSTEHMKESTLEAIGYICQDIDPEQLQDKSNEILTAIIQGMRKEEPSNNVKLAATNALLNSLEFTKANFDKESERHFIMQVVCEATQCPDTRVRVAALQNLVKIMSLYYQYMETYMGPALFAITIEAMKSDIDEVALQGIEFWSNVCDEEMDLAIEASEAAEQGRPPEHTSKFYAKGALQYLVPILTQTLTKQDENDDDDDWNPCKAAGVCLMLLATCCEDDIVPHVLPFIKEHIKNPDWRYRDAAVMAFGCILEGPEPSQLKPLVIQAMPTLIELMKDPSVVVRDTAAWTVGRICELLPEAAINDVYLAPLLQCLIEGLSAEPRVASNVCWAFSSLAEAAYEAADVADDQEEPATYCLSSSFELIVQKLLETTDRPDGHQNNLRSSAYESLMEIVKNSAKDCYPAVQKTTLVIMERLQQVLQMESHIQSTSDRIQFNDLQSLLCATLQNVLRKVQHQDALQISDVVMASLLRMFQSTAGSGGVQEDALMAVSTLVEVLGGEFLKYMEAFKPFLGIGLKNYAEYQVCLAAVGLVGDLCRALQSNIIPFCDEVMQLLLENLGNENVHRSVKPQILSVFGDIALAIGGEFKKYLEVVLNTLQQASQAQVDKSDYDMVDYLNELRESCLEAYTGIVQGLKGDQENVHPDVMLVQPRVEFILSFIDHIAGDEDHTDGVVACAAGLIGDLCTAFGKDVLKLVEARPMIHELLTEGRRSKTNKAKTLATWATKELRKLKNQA
#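 FRET biosensor (snurportin 1 IBB flanked by EYFP and cerulean), 50 nM, with compound 5 min, then 0.125 microM importin beta in PBS, 1 mM DTT, 0.02% Tween-20, 0.1% BSA. CFP/YFP ratio read after 45 min at room temperature; pre-read flags interference.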
# Active calls of the source: *; u = inconclusive; x = no result given; [ ] = remark or other dose. This is a subset, so the mix of outcomes need not match the whole.
no.	canonical_smiles	GLA inh pH 4.5	miR-21 reporter	Rango dissoc inh	Rango-impB inh
1	C/C=C1/CN2C3CC1C(CO)(C(=O)OC)C2Cc1c3n(C)c2ccccc12 (stereo not drawn)	4.4	2.3%	-3.7%	3.0%
2	COC(=O)C1=C(c2cc3ccccc3s2)C[C@@H]2CC[C@H]1N2C(=O)N1CCCC1	x	x	10.1%	-1.4%
3	NC12CN3CN(CN(C3)C1)C2 (tested in a mixture with another compound)	-4.0	0.3%	-5.7%	-0.5%
4	Cc1cc(OCC(=O)N2C[C@H]3C[C@@H](C2)c2cccc(=O)n2C3)c2c(C)cc(=O)oc2c1	x	-3.1%	16.2%	0.4%
5	FC(F)(F)Oc1ccc(NC2=NCCCS2)cc1	x	-19.7%	-2.4%	-1.2%
6	CCS(=O)(=O)CCSP(=O)(OC)OC	x	x	-2.4%	1.7%
7	CCC(=NCc1ccco1)c1c(O)n(-c2ccc(OC)cc2)c(=O)[nH]c1=O	-3.1	0.3%	7.3%	2.0%
8	CCCn1cc(CN2CCCC(C(=O)c3cccc(OC)c3)C2)c(C)n1 (stereo not drawn)	-2.9	0.2%	-4.6%	-1.7%
9	COC(=O)N(c1ccc(OC)cc1)P1(=S)OCCC(C)O1 (stereo not drawn)	-6.3	-8.3%	0.9%	4.2%
10	O=C(N/N=C/c1c(O)n(-c2cccc3ccccc23)c(=O)[nH]c1=O)c1ccncc1	-1.4	0.7%	u	u
11	O=c1c2ccccc2nc(-c2ccccc2)n1-c1ccccn1	-21.4	2.8%	8.2%	-1.7%
12	C=CCn1c(O)c(C(C)=NCCN2CCN(C(=S)NC)CC2)c(=O)[nH]c1=O	-2.4	11.4%	0.2%	-0.7%
13	N#CC1=C(N)Oc2c(c(=O)oc3ccccc23)C1c1ccncc1 (stereo not drawn)	0.0	0.0%	2.3%	3.1%
14	Oc1c(Br)cc(Br)cc1CN1CCN(Cc2ccccc2)CC1	-2.5	-2.5%	0.5%	1.9%
15	CC[C@H]1CN2CCC1C[C@@H]2[C@@H](O)c1ccnc2ccc(OC)cc12 (stereo partly drawn)	x	x	10.5%	-0.3%
16	CCCCNC(=O)Nc1ccc(C(O)(C(=O)OCC)C(F)(F)F)cc1 (stereo not drawn)	-2.7	-14.3%	-8.4%	7.0%
17	CCN1C(=O)NC(=O)/C(=C/c2cc(C)n(-c3sc(C)c(C)c3C#N)c2C)C1=O	-5.8	-13.7%	-15.6%	4.5%
18	CCOC(=O)c1ccc(-[n+]2c(-c3ccccc3)cc(-c3ccccc3)cc2-c2ccccc2)cc1	x	x	-5.4%	3.3%
19	C=C(COC(=O)CCC(=O)O)CC1CC(O)[C@]2(C)OC3CC4OC5C[C@]6(C)O[C@]7(C)CCC8OC9C[C@]%10(C)OC%11C(C)=CC(=O)OC%11CC%10OC9C[C@@H](C)C8OC7CC6O[C@]5(C)C/C=C\C4OC3CC2O1 (stereo partly drawn)	-6.8	5.5%	-27.4%	3.0%
20	CN(C)c1cc(N)c2c(n1)CCC2 (tested in a mixture with another compound)	7.8	-5.5%	7.9%	-2.0%
21	CC(=O)N1CCN(c2ccc(N=Cc3c(O)n(-c4ccc(Cl)cc4)c(=O)[nH]c3=O)cc2)CC1	-31.5	-2.6%	-28.4%	u
22	Cc1cc(C)cc(NC2=NCCCS2)c1	-2.4[21.1 µM]	-3.3%	48.3%	0.5%
23	COc1cccc(C2(C#N)CCN(C)CC2)c1	3.7	-6.4%	-7.6%	2.2%
24	Cn1c(=O)c2nncnc2n(C)c1=O	4.4	1.5%	3.8%	2.8%
25	COc1ccc(C2CC(c3cccs3)=NN2c2nc(C)c(C(C)=O)s2)cc1OC (stereo not drawn)	4.1	9.5%	u	u
26	Cc1nc2c(C(=O)N3CCC4(CC3)OCCO4)cnn2c(C)c1Cc1cccc(Cl)c1	3.1	-12.1%	-1.0%	-0.6%
27	O=C1C2CCN(CC2)[C@@H]1Cc1ccc2ccccc2c1O	5.1	-35.9%	33.5%	-0.1%
28	COC(=O)C1=C(c2ccc(F)cc2F)C[C@@H]2CC[C@H]1N2C(=O)N1CCC(O)CC1	x	x	0.3%	0.6%
29	COc1cccc(N=Nc2c(O)[nH]c(=S)[nH]c2=O)c1	-28.1	-45.0%	21.9%	4.1%
30	O=[N+]([O-])c1ccc(C[n+]2c(-c3ccccc3)cc(-c3ccccc3)cc2-c2ccccc2)cc1	x	x	-6.9%	-0.1%
31	CCC1CCCCN1CC(=O)c1ccc(OC(F)F)cc1 (stereo not drawn)	4.5	0.5%	-19.3%	-0.6%
32	COC(=O)C12OCC34C(CC5C(C)=C(O)C(=O)CC5(C)C3C(O)C1O)OC(=O)C(OC(=O)/C=C(\C)C(C)C)C24 (stereo not drawn)	x	x	-5.8%	2.4%
33	CN1C(=O)/C(=C/c2cccn2-c2ccc3ccccc3c2)C(=O)NC1=S	-1.1	-6.1%	-25.1%	u
34	CCCCC1(CC)COP(=O)(OCC(Cl)(Cl)Cl)OC1 (stereo not drawn)	x	x	14.2%	3.0%
35	Cc1ccc(S(=O)(=O)Cc2ccc(C(=O)N3CCC4(CC3)OCCO4)o2)cc1	7.7	-3.1%	4.9%	3.7%
36	C=C(C)Cn1c(=O)n(CC2CS2)c2ccccc21 (stereo not drawn)	-5.4	11.6%	-5.6%	-1.3%
37	CC(=Nc1ccc2c(c1)CCC2)c1c(O)n(C2CCCCC2)c(=O)[nH]c1=O	3.5	-4.4%	-6.4%	5.9%
38	CCN(CC)c1ccc(N=Cc2c(O)n(-c3cc(OC)ccc3OC)c(=O)[nH]c2=O)cc1	x	-0.7%	u	u
39	Cc1ccc(-c2cc(NC(=O)c3ccccc3)on2)cc1	x	-69.2%	10.2%	-1.6%
40	Cc1ccc2c(c1)c(=O)c1c3n2CCN(CC2CO2)C3CC1 (stereo not drawn)	6.2	-0.7%	-0.6%	u
41	CC(=O)O[C@@H]1CC[C@]2(C)C3CC[C@]4(C)C(=O)[C@H](O)CC4C3[C@@H](OC(C)=O)C[C@H]2C1 (stereo partly drawn)	x	x	3.5%	-0.5%
42	O=c1[nH]c(=S)[nH]c(O)c1N=Nc1ccc(SC(F)F)cc1	u	-35.5%	12.0%	-0.5%
43	CC(C)OP(=O)(OC(C)C)C(NCc1ccccc1)c1ccccc1 (stereo not drawn)	-7.2	-4.3%	0.5%	2.4%
44	O=C1CC2OCC=C3CN4CCC56c7cc([N+](=O)[O-])ccc7N1C5C2C3CC46 (stereo not drawn)	-0.4	-8.8%	13.5%	-0.8%
45	COc1ccc(NC2Oc3cc4c(cc3C(c3cc(OC)c(OC)c(OC)c3)C2C)OCO4)cc1 (stereo not drawn)	x	x	-6.9%	-0.9%
46	COC(=O)c1ccccc1OP1(=O)COc2ccccc2OC1	6.6	-2.0%	4.6%	-0.3%
47	CCOc1ccc(-c2cc(C)[n+](CCO)c(-c3ccc(OCC)cc3)c2)cc1	-7.4	u	-8.2%	-1.0%
48	COCCNC(=O)N1[C@H]2CC[C@@H]1C(C(=O)OC)=C(c1ccc(OC(F)(F)F)cc1)C2	x	x	16.2%	u
49	CCN(CC)CCN/N=C(\C)c1c(O)[nH]c(=O)[nH]c1=O	-6.0	-0.3%	-0.2%	5.2%
50	CCOC(=O)C1C(=O)NC23CCCC2C1c1ccccc1O3 (stereo not drawn)	4.1	-1.3%	-7.6%	-2.5%
51	CCOC(=O)c1c(-c2ccccc2)oc2ccc(OC(=O)N(C)C)cc12	-4.7	-4.0%	-15.5%	1.7%
52	CC1CCCCC1n1c(-c2cccnc2)n[nH]c1=S (stereo not drawn)	8.1	0.0%	u	3.2%
53	c1cc2c(cc1[C@H]1OC[C@H]3[C@@H]1CO[C@@H]3c1ccc3c(c1)OCO3)OCO2	7.2	13.0%	-5.4%	0.7%
54	CCOP(=O)(Nc1ccc2c(c1)C(=NNC(N)=S)c1ccccc1-2)OCC	x	x	1.0%	3.1%
55	CCOC(=O)c1c(NC(=O)c2c(N)n(CCCOC)c3nc4ccccc4nc23)sc2c1CCCC2	7.3	-2.9%	2.0%	5.2%
56	c1ccc(CNC2CCCCCCC2)cc1 (tested in a mixture with another compound)	x	x	u	2.1%
57	O=C(c1ccc(Cl)cc1)C1CCCN(Cc2ccon2)C1 (stereo not drawn)	-0.1	2.6%	20.9%	0.1%
58	COC(=O)C(O)(c1ccc(N(C)C(=O)c2ccc(Cl)c(Cl)c2)cc1)C(F)(F)F (stereo not drawn)	-4.1	-0.2%	-5.4%	6.8%
59	C=CCn1c(=O)c(C=Nc2c(OC)cccc2[N+](=O)[O-])c(O)n(CCCC)c1=O	-16.8	-0.2%	4.4%	-5.0%
60	COc1ccc(CN(CCc2c[nH]c3ccccc23)Cc2ccc(OC)cc2)cc1	x	x	-11.5%	-1.6%

# Random excerpt: 2 compounds from above
no.	canonical_smiles	GLA inh pH 4.5	miR-21 reporter	Rango dissoc inh	Rango-impB inh
54	CCOP(=O)(Nc1ccc2c(c1)C(=NNC(N)=S)c1ccccc1-2)OCC	x	x	1.0%	3.1%
59	C=CCn1c(=O)c(C=Nc2c(OC)cccc2[N+](=O)[O-])c(O)n(CCCC)c1=O	-16.8	-0.2%	4.4%	-5.0%

# Continuation.
no.	canonical_smiles	GLA inh pH 4.5	miR-21 reporter	Rango dissoc inh	Rango-impB inh
61	CCCCN1C(=O)NC(=O)C2(Cc3c(nc4ccccn4c3=O)N3CCc4ccccc4C32)C1=O (stereo not drawn)	3.5	9.9%	-2.1%	-2.9%
62	O=C(Nc1ccc(Br)cc1)c1nn(C23CC4CC(CC(C4)C2)C3)cc1Br	-1.7	0.7%	15.0%	-0.1%
63	Cn1ccc(NC(=O)CCl)n1	9.8	u	-9.4%	-2.7%
64	Cn1cnc2cc(NC(=O)c3ccc(Cl)cc3)ccc21	3.0	-67.1%	-9.8%	-8.5%
65	CN1CCN(c2ccc(Cl)cc2N)CC1	0.9	3.3%	-11.4%	-0.2%
66	Cn1cnnc1Sc1cc(N2CCNCC2)ccc1[N+](=O)[O-]	-13.2	-10.4%	-6.1%	-2.3%
67	Cc1ccc(C2C(=O)NC(=O)NC2=O)cc1	x	x	-2.5%	-0.9%
68	Cn1cccc1/C=C1/C(=O)NC(=S)N(Cc2ccc(F)cc2)C1=O	0.8	-0.4%	-21.9%	1.8%
69	COc1ccc(OC(=O)N(C)C)c(CN(C)C)c1	8.7	-1.4%	0.5%	-2.8%
70	CC(C)c1oc(=O)cc2c1[C@@H](O)[C@H]1OC(=O)[C@@]3(C)C[C@@H](O)[C@@H](O)[C@@]2(C)C13 (stereo partly drawn)	0.3	28.2%	u	2.6%
71	Cc1cc(OC(=O)c2ccco2)c2c3c(c(=O)oc2c1)CCC3	-7.4	5.8%	-13.9%	1.0%
72	CN1CCN(c2ncc(C=O)s2)CC1	2.8	-3.2%	0.4%	0.6%
73	Cc1nn(Cc2ccccc2)c(C)c1C(=O)O	6.9	-4.8%	-9.3%	0.9%
74	CSc1nc(N2CCN(C)CC2)c2ccccc2n1	4.8	-9.1%	-14.8%	4.4%
75	COc1ccc(Nc2ncc(C(=O)N3CCC4(CC3)OCCO4)c3ccccc23)cc1	-1.7	7.5%	-4.6%	-3.3%
76	CCOC(=O)C1(CCc2ccccc2)CCN(Cc2ccc(NC(C)=O)cc2)CC1	x	7.5%	11.6%	0.7%
77	Cc1ccc(-c2nc3ccccc3c(=O)n2-c2ccncc2)cc1	-5.9	-0.4%	-16.2%	6.0%
78	CCC(C)NC(=O)c1c(N)n(CC2CCCO2)c2nc3ccccc3nc12 (stereo not drawn)	18.8	9.1%	u	u
79	CC(=O)NC1CC2CCC(C1)N2 (stereo not drawn)	3.6	-3.6%	-5.2%	-4.4%
80	CCOP(=O)(OCC)C(NC(=O)c1ccc(Cl)cc1)=C(Cl)Cl	7.0	-5.8%	0.7%	1.4%
81	CCS(=O)(=O)NC(C)c1nnc2n1-c1ccc(Br)cc1C(c1ccccc1Cl)=NC2 (stereo not drawn)	x	x	7.6%	-0.4%
82	CC(=Nc1ccccc1N)c1c(O)n(C)c(=O)[nH]c1=O	x	-41.5%	-0.3%	u
83	CCCCN1C(=O)C(C2c3ccccc3C(=O)N2Cc2ccccc2)C(=O)NC1=S (stereo not drawn)	0.7	1.8%	-16.6%	-2.4%
